# CXCR6 inh: inhibitors of human CXCR6 receptor; inhibition, % at 20 µM; AID 602244; 360,000 tested, 0.36% active; CHO-K1 PathHunter CXCR6 beta-arrestin, luminescence; in the data active = inhibition above about 34%, passing the limit was not always enough;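 note: antagonist mode with CXCL16 agonist at 10 nM final; 0% = 10 nM CXCL16 with DMSO and 100% = unstimulated wells without agonist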
# Target sequence (O00574 whole entry, looked up): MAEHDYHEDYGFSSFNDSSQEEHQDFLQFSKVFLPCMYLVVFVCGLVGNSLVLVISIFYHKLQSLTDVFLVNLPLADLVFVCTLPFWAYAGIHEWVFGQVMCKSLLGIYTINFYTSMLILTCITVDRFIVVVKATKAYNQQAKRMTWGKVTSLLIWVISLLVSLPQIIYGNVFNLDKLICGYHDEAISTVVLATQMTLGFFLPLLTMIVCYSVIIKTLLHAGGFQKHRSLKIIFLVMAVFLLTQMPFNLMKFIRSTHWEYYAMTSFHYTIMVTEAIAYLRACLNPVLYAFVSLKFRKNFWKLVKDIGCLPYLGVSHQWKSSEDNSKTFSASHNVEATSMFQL
# CCR6 antag: antagonists of human CCR6 receptor. CHO-K1 CCR6 PathHunter beta-arrestin, luminescence, CCL20-stimulated. 340,000 tested, 0.49% active. inhibition, % at 20 µM;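 active = compounds whose inhibition of the agonist-driven luminescence signal at 20 µM reaches about 50%, limit read from the data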;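 note: cells stimulated with CCL20 at 14 nM final; plate controls were DMSO with CCL20 for no effect and DMSO without agonist for full effect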
# EBI2 antag: blocks human EBI2 receptor beta-arrestin signaling | 360,000 tested, 0.81% active | inhibition, % at 5 µM | EBI2 beta-arrestin recruitment, luminescence, 7a,25-OHC stimulated; in the data active = inhibition above about 38%;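 note: enzyme fragment complementation signal reports receptor beta-arrestin coupling in cells; 0% = agonist plus DMSO wells and 100% = wells without agonist; some results beyond the cut were filed as inactive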
# UBC13 polyUb: inhibitors of human UBC13 polyubiquitin chain formation; TR-FRET; AID 485273; 330,000 tested, 0.47% active; inhibition, % at 20 µM; P61088; in the data active = inhibition above about 45%, passing the limit was not always enough
# * = called active by the depositor; nt = no result given. This is a subset. The share of hits here may be higher or lower than overall.
# Labels used below – A = CXCR6 inh; B = CCR6 antag; C = EBI2 antag; D = UBC13 polyUb
SMILES: Nc1ccn([C@H]2CS[C@@H](CO)O2)c(=O)n1
  A = 1 | B = 4 | C = -1 | D = 4
SMILES: O=C1NC[C@H](c2ccccc2)OC(=O)[C@@H](Cc2ccc(F)cc2)CC/C=C/C[C@@H]1CC(=O)N(CCO)Cc1ccccc1
  A = 55* | B = 62* | C = 24 | D = -3
SMILES: O=C1NN(c2ccccc2)C(=O)/C1=C/c1ccc(Sc2ccc(Cl)cc2)o1
  A = 11 | B = 23 | C = -10 | D = -5
SMILES: CN(Cc1cnc2nc(N)nc(N)c2n1)c1ccc(C(=O)NC(CCC(=O)O)C(=O)O)cc1 (stereo not given)
  A = -2 | B = 7 | C = -9 | D = nt
SMILES: CC(N)C(=O)NC(CO)C(O)C(N)C=O (stereo not given)
  A = 3 | B = 6 | C = -8 | D = nt
SMILES: NNC(=O)c1nc(-c2ccccc2)cc(-c2ccccc2)n1
  A = -6 | B = 6 | C = 8 | D = 6
SMILES: CCN1CCN(C(=O)N[C@@H](C(=O)N[C@@H]2C(=O)N3C(C(=O)O)=C(CSc4nnnn4C)CS[C@H]23)c2ccc(O)cc2)C(=O)C1=O
  A = -4 | B = -4 | C = -2 | D = 1
SMILES: O=C1C(CCS(=O)c2ccccc2)C(=O)N(c2ccccc2)N1c1ccccc1 (stereo not given)
  A = 2 | B = -3 | C = 3 | D = 0
